GLA inh pH 4.5: alpha-galactosidase A (human) inhibition, pH 4.5. AID 1467. purified enzyme, 4-MU-alpha-Gal fluorescence, pH 4.5. 230,000 tested, under 10 active. activity change, negative = inhibition, % at 105 µM; inconclusive = small, poorly fitted or top-dose-only inhibition, or a rising curve; inactive = flat fitted curve, though single readings scatter; no compound was filed as active;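 also: 0% = full activity with enzyme and -100% = basal without enzyme; dose as in the result columns while the protocol names 77 µM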
Target sequence (P06280 whole entry, looked up): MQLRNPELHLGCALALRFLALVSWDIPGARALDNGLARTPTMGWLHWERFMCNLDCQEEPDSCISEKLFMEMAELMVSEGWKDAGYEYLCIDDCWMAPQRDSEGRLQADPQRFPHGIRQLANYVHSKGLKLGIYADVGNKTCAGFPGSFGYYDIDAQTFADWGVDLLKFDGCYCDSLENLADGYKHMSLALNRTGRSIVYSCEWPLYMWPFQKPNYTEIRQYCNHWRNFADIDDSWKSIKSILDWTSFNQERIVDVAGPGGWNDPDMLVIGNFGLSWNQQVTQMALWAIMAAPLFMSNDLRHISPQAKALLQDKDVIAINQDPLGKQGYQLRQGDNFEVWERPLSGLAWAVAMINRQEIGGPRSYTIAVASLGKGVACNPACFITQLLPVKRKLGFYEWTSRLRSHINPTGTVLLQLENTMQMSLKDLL
miR-21 FLuc: miR-21 reporter, rising signal | 340,000 tested, under 10 active | AID 2288 | HeLa miR-21 FLuc reporter, luciferase, 48 h | Potency, µM (series often up to 38.3 µM), for the others: at the top dose reporter change, positive = more light; active = well fitted rising curve with a large enough effect; inconclusive = small, poorly fitted or top-dose-only effect; inactive = no such curve, though single readings can be large or run the other way;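 also: % of control where 0% means no effect; miR-21 action dims this reporter so a rising signal means less miR-21 action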
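Using DMEM plus 10% FBS, HeLa miR-21-FLuc cells are incubated with test compounds (final up to about 40uM) for 48 hours; firefly luciferase signal is then imaged following reagent-mediated lysis.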
Rango release inh: prevents RanGTP from dissociating the Rango-importin beta complex; O95149+P62826; Biochemical FRET Rango-importin beta, RanGTP-induced dissociation; Potency, µM (series often up to 46.1 µM), without a hit: top-dose activity change, negative = inhibition; 0.071% of 340,000 active; active means falling FRET ratio curve, often poorly fitted, with flat reads before Ran was added; inconclusive means other falling curves, or compound fluorescence or quenching; inactive means flat or rising ratio curve;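 also: potency is read from the fitted curve at half-maximal effect; % of control where 0% means no effect; nearly all actives have a fitted effect of over 45% in size; -100% = wells without RanGTP and RCC1; the record marks most hits as doubtful in a second field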
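FRET read at 45 min, room temperature: inhibitors block the CFP/YFP signal rise when RanGTP (0.6 uM Ran, 2 mM GTP, 0.2 uM RCC1) frees Rango (0.1 uM) from importin beta (0.25 uM). Pre-read after 5 min compound exposure flags interference.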
Rango complex inh: inhibitors of Rango-importin beta complex formation. Q14974. Rango CFP/YFP FRET sensor + importin beta, 45 min. Potency, µM (highest dose often 92.2 µM), for inactives: top-dose inhibition of complex formation. 0.031% of 340,000 active. AID 540263; active = rising FRET ratio curve, often small or poorly fitted; inconclusive = mostly compound fluorescence or quenching in the first reads; inactive = flat curves in all reads;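 also: potency is read from the fitted curve at half-maximal effect; 0% = DMSO wells and 100% = buffer wells lacking importin beta; nearly all actives have a fitted effect of over 15% in size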
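FRET biosensor (snurportin 1 IBB flanked by EYFP and cerulean), 50 nM, with compound 5 min, then 0.125 microM importin beta in PBS, 1 mM DTT, 0.02% Tween-20, 0.1% BSA. CFP/YFP ratio read after 45 min at room temperature; pre-read flags interference.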
Active calls of the source: *; & = joins results of further samples. A portion of the library, so the mix of outcomes need not match the whole.

How did CC(C)(C)C(=O)Nc1ccccc1C(=O)NCc1ccco1 do in these assays?
GLA inh pH 4.5: 4; miR-21 FLuc: -20%; Rango release inh: -10%; Rango complex inh: 3.2%

How did CCOc1ccc(CNC(=O)CCC(=O)n2nc(C)c3ccccc32)cc1 do in these assays?
miR-21 FLuc: 0%; Rango release inh: -7%; Rango complex inh: 4.6%

What do the screens show for `Cc1ccn(-c2cc(O)c(-n3ccc(C)n3)cc2O)n1`?
GLA inh pH 4.5: -12; miR-21 FLuc: -15%; Rango release inh: -22%; Rango complex inh: -0.3%

Results for O=C(CNC(=O)c1ccc(F)cc1)c1ccc(Cl)cc1 ?
miR-21 FLuc: -67%; Rango release inh: 0%; Rango complex inh: -2.3%

How did O=C(O)C1CCCN1S(=O)(=O)c1ccc(Br)s1 (centres undefined) (tested in a mixture with another compound) do in these assays?
GLA inh pH 4.5: -6; miR-21 FLuc: -4%; Rango release inh: 19%; Rango complex inh: 0.9%

What do the screens show for `CC(C)CNC(=O)c1ccccc1NC(=O)c1ccc(CSc2ccccc2)cc1`?
GLA inh pH 4.5: -26; miR-21 FLuc: -25%; Rango release inh: 6%; Rango complex inh: inconclusive

Results for Cc1nonc1NC(=O)CSc1nc(CCC2CCCC2)nc2ccccc12 ?
GLA inh pH 4.5: -7; miR-21 FLuc: -2%; Rango release inh: 10%; Rango complex inh: -0.8%

Results for CN(C(=O)COC(=O)C12CC3CC(CC(Cl)(C3)C1)C2)c1ccccc1 ?
Rango release inh: 1%; Rango complex inh: -1.9%

How did CCOc1ccc2[nH]c(C(=O)N/N=C/c3ccccc3OC)cc2c1 do in these assays?
miR-21 FLuc: 18%; Rango release inh: 18%; Rango complex inh: 2.1%

What do the screens show for `CCN(C[C@H]1N[C@@](C)(C(=O)OC)[C@H]2C(=O)N(C)C(=O)[C@@H]12)S(=O)(=O)c1ccc(OC)cc1`?
Rango release inh: -11%; Rango complex inh: 0.4%

How did CN(C(=O)CCc1nnc(CCCCc2ccccc2)o1)C1CCOCC1 do in these assays?
GLA inh pH 4.5: -8; miR-21 FLuc: -6%; Rango release inh: -6%; Rango complex inh: -2.9%

How did Cc1nn(-c2ccc(N3CCCCC3)nn2)c(C)c1CCC(=O)Nc1ccccc1F do in these assays?
miR-21 FLuc: -2%; Rango release inh: -6%; Rango complex inh: 2.2%

Results for COC(=O)C1=C(NC(C)=O)CCS1 ?
GLA inh pH 4.5: -8; miR-21 FLuc: 3%; Rango release inh: -11%; Rango complex inh: -1.1%

What do the screens show for `CCN(CC(=O)Nc1ccc(NC(C)=O)cc1)C(=O)CSc1ncnc2sc(C)c(C)c12`?
Rango release inh: inconclusive; Rango complex inh: inconclusive

What do the screens show for `CCn1c(=O)c(=O)[nH]c2cc(C(=O)NC(C)c3ccc(S(N)(=O)=O)cc3)ccc21` (centres undefined)?
miR-21 FLuc: 6%; Rango release inh: -11%; Rango complex inh: 3.0%

What do the screens show for `CCOC(=O)c1c(C)[nH]c(C(=O)CSc2nnc(-c3ccncc3)n2CC)c1C`?
GLA inh pH 4.5: -8; miR-21 FLuc: -2%; Rango release inh: -14%; Rango complex inh: 2.9%

How did Cc1nn(C)c(C)c1CN(C)C(=O)C1CCC(=O)N(C2CCCCCC2)C1 (centres undefined) do in these assays?
miR-21 FLuc: 0%; Rango release inh: 11%; Rango complex inh: 0.8%

What do the screens show for `COc1cc(NS(=O)(=O)c2ccc(N/C=C\C(=O)c3ccc(OC)c(OC)c3)cc2)nc(OC)n1`?
GLA inh pH 4.5: 1; miR-21 FLuc: -20%; Rango release inh: inconclusive; Rango complex inh: inconclusive

What do the screens show for `CN(CC(=O)Nc1ccccc1C(=O)NC1CC1)Cc1ccco1`?
Rango release inh: -24%; Rango complex inh: 0.4%

What do the screens show for `Cc1cc(O)c(C=Nc2ccc(Cl)cn2)c(=O)o1`?
GLA inh pH 4.5: 5; miR-21 FLuc: -6%; Rango release inh: inconclusive; Rango complex inh: inconclusive

What do the screens show for `CCOc1ccc(-c2nc(-c3ccc(OC)cc3)no2)cc1OCC`?
GLA inh pH 4.5: -3; miR-21 FLuc: -7%; Rango release inh: 1%; Rango complex inh: 0.5%

What do the screens show for `CCCNC(=O)Nc1nnc(C2CC2)s1`?
GLA inh pH 4.5: -6; miR-21 FLuc: 2%; Rango release inh: 7%; Rango complex inh: -1.3%

How did CCC(=O)N1c2ccc(S(=O)(=O)CCC(=O)NCc3cccs3)cc2CC1C (centres undefined) do in these assays?
GLA inh pH 4.5: -9; miR-21 FLuc: 24%; Rango release inh: -9%; Rango complex inh: 0.6%

How did Cc1ccc(NC(=O)CN2C(=O)NC(C)(c3ccc(Cl)cc3)C2=O)c(Br)c1 (centres undefined) do in these assays?
miR-21 FLuc: 25%; Rango release inh: -1%; Rango complex inh: -1.2%

Results for CCO[C@@H]1OC(C(=O)Nc2ccccc2)=C[C@H](c2ccc(C(F)(F)F)cc2)[C@H]1CCCO ?
GLA inh pH 4.5: -16; miR-21 FLuc: 5%; Rango release inh: -8%; Rango complex inh: 0.3%

How did COc1ccccc1OCC(=O)NC1CC(C)(C)NC(C)(C)C1 do in these assays?
miR-21 FLuc: -2%; Rango release inh: inconclusive; Rango complex inh: 4.1%

Results for CN(C)C(=O)CCc1nc(-c2ccc(C(C)(C)C)cc2)no1 ?
GLA inh pH 4.5: -1; miR-21 FLuc: -21%; Rango release inh: 14%; Rango complex inh: -0.5%

What do the screens show for `CC(C)(C)c1ccc(C(=O)Nc2ccc(NC(=O)C(=O)O)cc2)o1`?
GLA inh pH 4.5: -1; miR-21 FLuc: 20%; Rango release inh: 17%; Rango complex inh: 1.9%

What do the screens show for `Cc1ccc(C(=O)CN(C(=O)c2ccc(Cl)c(Cl)c2)N2C(=O)C3CCCCC3C2=O)cc1C` (centres undefined)?
GLA inh pH 4.5: -2; miR-21 FLuc: -1%; Rango release inh: -11%; Rango complex inh: -0.6%

How did CC1(C(=O)O)CCC(C(=O)NNC(=O)c2ccccc2O)C1(C)C (centres undefined) do in these assays?
miR-21 FLuc: 0%; Rango release inh: -9%; Rango complex inh: 0.2%

What do the screens show for `O=C(Cc1ccccc1)NC1CCN(S(=O)(=O)c2cccc(F)c2)CC1`?
GLA inh pH 4.5: 6; miR-21 FLuc: -5%; Rango release inh: 2%; Rango complex inh: -2.6%

Results for CN(C)S(=O)(=O)c1cccc(NC(=S)NC2CCCCC2)c1 ?
GLA inh pH 4.5: -1; miR-21 FLuc: -2%; Rango release inh: -12%; Rango complex inh: 1.1%

Results for Cc1cc2c(SCC(=O)N3CCN(c4ccccc4)CC3)ncnc2s1 ?
Rango release inh: -10%; Rango complex inh: 0.1%

How did CCC1=NN(C(=O)Cc2ccc(OC)c(OC)c2)C(O)(C(F)(F)F)C1 (centres undefined) do in these assays?
GLA inh pH 4.5: -1; miR-21 FLuc: -8%; Rango release inh: 2%; Rango complex inh: -0.3%

How did COc1ccc(N2C(=O)c3ccccc3C2O)cc1 (centres undefined) do in these assays?
miR-21 FLuc: -41%; Rango release inh: 15%; Rango complex inh: 4.4%

What do the screens show for `COCC(=O)N1CCC(Oc2ccc(C(=O)N(C)C(C)c3ccon3)cc2)CC1` (centres undefined)?
miR-21 FLuc: 2%; Rango release inh: -4%; Rango complex inh: 0.2%

Results for Cc1nnc(NC(=O)C2c3ccccc3Oc3ccccc32)s1 ?
GLA inh pH 4.5: -6; miR-21 FLuc: 13%; Rango release inh: 1%; Rango complex inh: 2.1%

How did O=C(Cn1ccc2ccccc2c1=O)NCCC(=O)Nc1ccc2c(c1)OCCO2 do in these assays?
GLA inh pH 4.5: 2; miR-21 FLuc: -7%; Rango release inh: 0%; Rango complex inh: -0.1%

How did Cc1csc(SCC(=O)Nc2nc(-c3ccccc3)cs2)n1 do in these assays?
GLA inh pH 4.5: 6; miR-21 FLuc: -29%; Rango release inh: 2%; Rango complex inh: -1.2%

Results for CN1CCN(c2ccc(NS(=O)(=O)c3ccc(Cl)cc3)cn2)CC1 ?
GLA inh pH 4.5: -1; miR-21 FLuc: -3%; Rango release inh: -24%; Rango complex inh: 3.5%

Results for COc1cccc2[nH]c3c(N4CCCCC4)ncnc3c12 ?
GLA inh pH 4.5: 4; miR-21 FLuc: -36%; Rango release inh: 0%; Rango complex inh: -2.6%

What do the screens show for `O=C(COC(=O)c1ccc(Cl)nc1)NC(=O)c1ccccc1`?
miR-21 FLuc: -1%; Rango release inh: -1%; Rango complex inh: -0.4%

How did Cc1nnc(SCC(=O)NC2CCCCC2)n(N)c1=O do in these assays?
GLA inh pH 4.5: -5; miR-21 FLuc: -1%; Rango release inh: 9%; Rango complex inh: 0.5%

What do the screens show for `Cc1ccc2cn[nH]c2c1NC(N)=S`?
GLA inh pH 4.5: -17; miR-21 FLuc: -14%; Rango release inh: 1%; Rango complex inh: 1.8%

What do the screens show for `CC(=O)Nc1cccc(NC(=O)CSc2nnnn2C)c1`?
GLA inh pH 4.5: 2; miR-21 FLuc: -3%

What do the screens show for `O=C(Nc1ccc(C(F)(F)F)cn1)Nc1cccs1`?
GLA inh pH 4.5: 10; miR-21 FLuc: -37%; Rango release inh: -10%; Rango complex inh: -2.3%

How did COc1cc(NC(=O)CSc2ncccc2C(=O)OC(C)C)cc(OC)c1 do in these assays?
GLA inh pH 4.5: 0; miR-21 FLuc: -7%&-7%; Rango release inh: -11%; Rango complex inh: -1.4%

How did COc1ccc2cc(C(=O)Nc3c(C)n(C)n(-c4ccccc4)c3=O)sc(=O)c2c1OC do in these assays?
GLA inh pH 4.5: 7; miR-21 FLuc: -5%; Rango release inh: -31%; Rango complex inh: 1.7%

Results for CCCCOc1ccc(C(=O)N/N=C/c2cn[nH]c2-c2ccc(OC)c(OC)c2)cc1 ?
GLA inh pH 4.5: -14; miR-21 FLuc: -2%; Rango release inh: 16%; Rango complex inh: 1.7%

How did Cc1ccc(S(=O)(=O)Nc2ccc(-c3nnc(SCC#N)n3C)cc2)cc1 do in these assays?
GLA inh pH 4.5: -18; miR-21 FLuc: -6%; Rango release inh: 11%; Rango complex inh: 1.4%

What do the screens show for `COc1ccc2nc(NC(=O)CCc3nc(-c4ccccc4F)no3)sc2c1`?
GLA inh pH 4.5: 7; miR-21 FLuc: -10%; Rango release inh: 21%; Rango complex inh: -5.1%

What do the screens show for `CN1CCN(c2nc3c(c(=O)[nH]c(=O)n3C)n2Cc2ccc(Cl)cc2)CC1`?
miR-21 FLuc: 0%; Rango release inh: 2%; Rango complex inh: -1.3%

What do the screens show for `Cc1ccc(S(=O)(=O)/N=C(\CCl)N2CCOCC2)cc1`?
GLA inh pH 4.5: -7; miR-21 FLuc: 16%; Rango release inh: -19%; Rango complex inh: 2.5%

Results for CCN(CC(=O)Nc1c(F)cccc1F)C(=O)/C=C/c1ccc2c(c1)OCO2 ?
Rango release inh: 15%; Rango complex inh: 3.9%

What do the screens show for `Cc1cnc(C(=O)OCC(=O)c2ccccc2)cn1`?
Rango release inh: -12%; Rango complex inh: 1.1%

Results for COc1ccc(N(CC(=O)NCc2cccnc2)S(=O)(=O)c2ccc(C)c([N+](=O)[O-])c2)cc1 ?
GLA inh pH 4.5: 8; miR-21 FLuc: -2%; Rango release inh: -3%; Rango complex inh: -3.2%

Reprinted at random: 5 records from the list
How did Cc1ccc(NC(=O)CN2C(=O)NC(C)(c3ccc(Cl)cc3)C2=O)c(Br)c1 (centres undefined) do in these assays?
miR-21 FLuc: 25%; Rango release inh: -1%; Rango complex inh: -1.2%

How did COc1ccc2cc(C(=O)Nc3c(C)n(C)n(-c4ccccc4)c3=O)sc(=O)c2c1OC do in these assays?
GLA inh pH 4.5: 7; miR-21 FLuc: -5%; Rango release inh: -31%; Rango complex inh: 1.7%

What do the screens show for `CN1CCN(c2nc3c(c(=O)[nH]c(=O)n3C)n2Cc2ccc(Cl)cc2)CC1`?
miR-21 FLuc: 0%; Rango release inh: 2%; Rango complex inh: -1.3%

Results for Cc1nonc1NC(=O)CSc1nc(CCC2CCCC2)nc2ccccc12 ?
GLA inh pH 4.5: -7; miR-21 FLuc: -2%; Rango release inh: 10%; Rango complex inh: -0.8%

Results for CN(C(=O)COC(=O)C12CC3CC(CC(Cl)(C3)C1)C2)c1ccccc1 ?
Rango release inh: 1%; Rango complex inh: -1.9%

Screens: PubChem, National Center for Advancing Translational Sciences (NCATS)
